Compound activity as filed in PubChem BioAssay.
gsp agonist: gsp mutant agonism. Potency, µM (titrated, usually from 76.9 µM), inactives show at the top dose activation (cAMP increase), actives largely listed as activators. 340,000 tested, 0.13% active. gsp mutant cells, cAMP HTRF, 30 min; control for the full effect not named in the record; active = well fitted activation curve with a large enough effect; inconclusive = small, poorly fitted or top-dose-only effect, or another doubt; inactive = no such curve, though single readings can be large or run the other way; cell line not stated here;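 note: phosphodiesterase inhibitor Ro 20-1724 added with compounds to block cAMP breakdown; potency is the fitted concentration of half-maximal effect; nearly all actives have a fitted effect of over 60% in size; about a fifth of the inactives were tested at one dose only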
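Cells in DMEM/10% FBS with G418 were pretreated with compounds in DMSO plus […] (300 uM stock) for 30 min at 37C. cAMP was measured by HTRF (cAMP-d2 plus anti-cAMP antibody-K) after 30 min at room temperature.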
TRPML1 agonist: activates the human TRPML1 channel; AID 624414; 410,000 tested, 0.12% active; Q9GZU1; activation, % (concentration not given with the values); TRPML1-expressing cells, Ca2+ dye fluorescence, FDSS; host cell line not named in the record; reference of the full effect not given here; in the data active = activation above about 50%; inconclusive = about 30% to 50%; inactive = below about 30%; note: 0% is about no effect; the text of the record puts the active cut at 80%
Target sequence (Q9GZU1 whole entry, looked up): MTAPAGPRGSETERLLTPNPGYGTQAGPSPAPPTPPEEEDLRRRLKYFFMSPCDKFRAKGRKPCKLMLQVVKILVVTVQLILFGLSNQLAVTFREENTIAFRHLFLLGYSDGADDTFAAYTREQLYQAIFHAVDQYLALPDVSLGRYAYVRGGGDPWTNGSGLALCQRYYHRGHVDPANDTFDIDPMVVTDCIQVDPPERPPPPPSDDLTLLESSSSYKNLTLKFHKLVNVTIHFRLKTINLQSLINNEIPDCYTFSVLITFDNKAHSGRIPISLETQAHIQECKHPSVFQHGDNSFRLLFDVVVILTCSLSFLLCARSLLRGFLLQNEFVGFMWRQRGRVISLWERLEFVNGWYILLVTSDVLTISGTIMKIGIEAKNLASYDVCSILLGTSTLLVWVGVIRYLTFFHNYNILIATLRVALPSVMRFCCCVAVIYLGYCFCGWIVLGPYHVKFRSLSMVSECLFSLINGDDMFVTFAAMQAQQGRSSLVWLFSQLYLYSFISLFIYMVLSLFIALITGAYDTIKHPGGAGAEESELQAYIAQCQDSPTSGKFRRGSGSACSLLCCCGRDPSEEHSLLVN
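TRPML1-DL cells, Tet-induced overnight (~16 h, 37 degrees C), loaded 45-90 min at room temperature with Ca8 no-wash calcium dye plus quencher. FDSS fluorescence: 10 s baseline, compound pin-transfer, 110 s agonist read, then EC80 54-4 (4uM final) and 110 s antagonist read.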
gsp antag: antagonists of gsp mutant (McCune-Albright syndrome). gsp-mutant cells, cAMP HTRF, 30 min; control for the full effect not named in the record. Potency, µM (doses to about 76.9 µM), for the others: top-dose activity change, negative = inhibition, usual class: inhibitors. 340,000 tested, 0.4% active; active = falling curve of any shape with a large fitted effect; inconclusive = falling curve, mostly with a smaller effect; inactive = flat or rising curve; cell line not stated here;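 note: intracellular cAMP measured with PDE inhibitor Ro 20-1724 present during compound exposure; potency is the fitted concentration of half-maximal effect; % is set by controls: 0 for no effect and ±100 for the full control effect; nearly all actives have a fitted effect of over 65% in size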
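G418-selected cells were plated in DMEM/10% FBS for 16-24 h at 37C, then treated with compounds plus the PDE inhibitor […] (300 uM solution added) for 30 min at 37C. Intracellular cAMP was measured by HTRF after 30 min lysis at room temperature.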
ClpP mod: qHTS Assay for Activators of ClpP. ATP-dependent Clp protease proteolytic subunit (Bacillus subtilis (strain 168)), P80244. purified B. subtilis ClpP, FRET peptide cleavage, 20 min. Potency, µM (doses to about 57.5 µM), inactives show at the top dose activity change, negative = active. 340,000 tested, 1.9% active; active = well fitted falling curve with a large enough effect; inconclusive = small, poorly fitted or top-dose-only effect; inactive = no such curve, though single readings can be large or run the other way; note: potency is the fitted concentration of half-maximal effect; the source files actives as falling curves though it sought activators and does not explain the sign; nearly all actives have a fitted effect of over 65% in size; many hits overshoot -100%
Target sequence (P80244 whole entry, looked up): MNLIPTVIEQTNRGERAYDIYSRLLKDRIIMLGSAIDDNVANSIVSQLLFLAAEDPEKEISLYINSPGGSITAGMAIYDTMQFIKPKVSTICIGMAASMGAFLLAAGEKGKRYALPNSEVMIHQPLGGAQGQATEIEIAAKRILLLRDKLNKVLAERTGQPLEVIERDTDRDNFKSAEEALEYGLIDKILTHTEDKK
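ClpP 10 microg/mL final, pH 8 Tris/KCl buffer with BSA, glycerol, Tween-20; compound pinned in; FRET-FV substrate; RT 20 min; Ex320/Em430; ΔFRET vs ADEP 5.8 microM, DMSO, no enzyme.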
Menin MLL FP FL: displaces fluorescein MLL peptide from human menin | Fluorescence polarization, fluorescein-MLL peptide displacement from menin | 290,000 tested, under 10 active | FP activity change, % at 61.4 µM; inconclusive = falling polarisation curve, or a change in total fluorescence; inactive = total fluorescence flat and polarisation flat or rising; no compound was filed as active; the % refers to the polarisation; negative = inhibition;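 note: % of control where 0% means no effect; inhibitors lower the polarisation; unlabelled MLL peptide was the positive control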
TRPML1 blocker: inhibitors of human TRPML1 channel; AID 624415; activity change, negative = inhibition, % (concentration not given with the values); Q9GZU1; TRPML1-inducible cells, Ca2+ dye fluorescence, FDSS; stronger effect = lower value; inhibition of EC80 agonist-evoked calcium signal; 390,000 tested, 0.02% active; in the data active means activity change below about -50%; inconclusive means about -30% to -50%; inactive means above about -30%;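 note: stimulus is agonist 54-4 at its EC80 concentration; % is set by controls: 0 for no effect and ±100 for the full control effect; compound concentration not given in the record; the text of the record puts the active cut at -80%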
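Calcium fluorescence in TRPML1-DL cells induced overnight with Tet: a 110 s read after compound pin addition, then a 110 s antagonist read after challenge with 54-4 at 4 uM final (EC80).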
Active calls of the source: *; u = inconclusive; x = no result given; [ ] = remark or other dose.

SMILES	gsp agonist	TRPML1 agonist	gsp antag	ClpP mod	Menin MLL FP FL	TRPML1 blocker
COc1cc2c(cc1OC)C(c1cccc([N+](=O)[O-])c1)N(C(=O)c1ccccc1C(=O)O)CC2 (stereo unspecified)	-13%[15.4 µM]	6.1	x	x	-3.1	-17
COc1ccc(OC)c(NC(=O)Cn2c(=O)cc(-c3ccccc3)c3c(C)nn(C)c32)c1	x	1.3	x	0.1%	x	9
Cc1cc(NC(=O)COC(=O)C2CC(=O)N(c3cccc(C)c3C)C2)no1 (stereo unspecified)	6%[15.4 µM]	0.1	1%	-1.5%	-3.7	13
Cc1cc(S(=O)(=O)NCCCN2CCOCC2)ccc1Br	23%	-0.1	17%	2.1%	x	-8
COc1cccc2cc(C(=O)c3ccc([N+](=O)[O-])cc3)oc12	-2%[15.4 µM]	0.3	6%	x	-5.1	1
COc1ccccc1CNC(=O)N1CCN(c2ccccc2)CC1	-16%[15.4 µM]	-0.4	-8%	x	-5.0	-9
COc1cc2c(-c3ccc4c(c3)OCO4)c(-c3ccsc3)oc(=O)c2cc1OC	x	2.0	u	3.2%	x	25
CN(CC(=O)NCC1CCCCC1)CC(=O)Nc1ccccc1Br	4%	-0.5	5%	-3.7%	x	1
COc1ccc(S(=O)(=O)N2CCN(C(=O)c3cnc(C)cn3)CC2)cc1	-9%	0.9	-1%	0.4%	3.3	13
CCOC(=O)C1CCN(C(=O)CN2C(=O)C(C(C)C)Oc3ccccc32)CC1 (stereo unspecified)	-5%[15.4 µM]	0.1	4%	3.5µM*	-3.3	14
Cc1ccc(C(=O)OCC(=O)Nc2ccccc2C(F)(F)F)cc1S(=O)(=O)N1CCOCC1	-37%[inhibitor]	0.2	-5%	1.8%	-0.5	25
C=CCOC(=O)C1=C[C@@H](c2coc3ccccc3c2=O)C[C@@H](OCc2ccc(CO)cc2)O1	x	1.4	-14%	4.1%	u	-5

Retrieved by structure from the entries so far (two):
SMILES	gsp agonist	TRPML1 agonist	gsp antag	ClpP mod	Menin MLL FP FL	TRPML1 blocker
Cc1cc(S(=O)(=O)NCCCN2CCOCC2)ccc1Br	23%	-0.1	17%	2.1%	x	-8
COc1ccccc1CNC(=O)N1CCN(c2ccccc2)CC1	-16%[15.4 µM]	-0.4	-8%	x	-5.0	-9

Going on with the list.
SMILES	gsp agonist	TRPML1 agonist	gsp antag	ClpP mod	Menin MLL FP FL	TRPML1 blocker
COc1ccc(C(=O)CSc2nnc3ccc(-c4ccccn4)nn23)cc1	u	x	-37%	1.0%	1.1	x
Cc1cc(C)n2nc(SCC(=O)N3CCCC3)nc2n1	7%[15.4 µM]	-0.6	5%	1.2%	x	4
COCC(=O)Nc1nc2n(n1)C(c1ccccc1)CC(c1ccc(OC)cc1)N2 (stereo unspecified)	-7%	4.7	5%	25µM*	0.7	7
O=C(Cn1cnnn1)NCCc1ccc(Cl)cc1Cl	8%[15.4 µM]	0.7	3%	x	0.9	-6
O=C(CCn1ccc2ccccc21)NC1CCCc2ccccc21 (stereo unspecified)	-32%[inhibitor]	2.1	0%	-0.6%	3.2	-6
CCC(C(=O)Nc1cccc(-c2cn3cccnc3n2)c1)c1ccccc1 (stereo unspecified)	x	-0.1	x	3.9%	x	u
Cc1ccc(N=Nc2[nH]c3ccccc3c2O)cc1	-14%	1.8	9%	25µM*	u	8
COc1ccccc1N(CC(=O)NCCSc1ccccc1)S(C)(=O)=O	0%	0.1	-1%	-2.0%	-2.1	-12
c1ccc(-c2ccc3c(c2)NCCN3)cc1	0%	-0.2	-17%	4.0%	1.9	-10
S=C(NCC1CCCO1)NC1CCCC1 (stereo unspecified)	-59%[inhibitor]	0.2	6%	x	3.7	-8
COC(=O)CC(C(=O)Nc1cc(C(=O)OC)cc(C(=O)OC)c1)N1CCN(C)CC1 (stereo unspecified)	15%	0.7	4%	0.0%	x	-12
COC(=O)NCC(c1cccnc1)N1CCOCC1 (stereo unspecified)	-48%[inhibitor]	-0.2	0%	1.0%	1.8	-3
Cc1nc2sc3c(c2c2nnc(SCC(=O)NCc4ccco4)n12)CCCC3	11%	-1.9	2%	-2.9%	1.5	-8
CCOc1cc(-c2ccc(OC(=O)c3ccc(Cl)cc3)c(OC)c2)cc(=O)c2c(C)oc(C)c12	x	0.4	x	-1.9%	x	14
c1nc(N2CCN(Cc3ccc4c(c3)OCO4)CC2)c2[nH]cnc2n1	-17%	-0.1	-2%	2.1%	3.8	-1
CC(=O)Nc1sc(C)c(C)c1C(=O)OC1CCOC1=O (stereo unspecified)	0%	-0.6	-7%	-11%	2.7	18
CC(=O)Nc1ccc(-c2cc(C(=O)O)c3c(-c4ccccc4)[nH]nc3n2)cc1	x	0.5	x	u	x	9
CN1C(=O)CC(C(=O)Nc2ccccc2F)SC1=Nc1ccc2c(c1)OCO2 (stereo unspecified)	-11%[15.4 µM]	1.4	-7%	x	-2.2	30
Cc1snc(S(=O)(=O)/C(C#N)=N/Nc2ccc(C(F)(F)F)cc2)c1C#N	-32%[inhibitor]	-0.6	-23%	0.4%	0.0	3
CN(CCOc1ccc(F)cc1)Cc1ccccc1	7%[15.4 µM]	-1.3	12%	-2.0%	2.0	13
Cc1nn(CC(=O)NCCc2ccccc2)c(=O)c2ccccc12	-18%	-1.1	8%	-0.1%	2.8	7
O=C(CC1C(=O)N(c2ccc(F)cc2)C(=O)N1Cc1cccnc1)Nc1ccc(F)cc1 (stereo unspecified)	x	1.2	x	-1.3%	x	-11
Cn1c(N)c(C(=O)COC(=O)C2=COCCO2)c(=O)n(C)c1=O	u	0.3	27%	1.2%	-4.1	9
CCOCCCNC(=O)CN(c1cc([N+](=O)[O-])ccc1OC)S(C)(=O)=O	0%[15.4 µM]	-0.9	17%	x	-0.4	-7
O=c1[nH]c(-c2ccccc2)c(-c2ccccc2)[nH]1	29%	-0.9	14%	87%	0.7	-1
CCCCCCc1cc2cc(C(=O)Nc3cccc(OC)c3)c(=O)oc2cc1O	-6%	2.2	0%	-4.0%	u	-1
CCOC(=O)C1CCN(C(=O)Nc2ccc3nccnc3c2)CC1	9%	-0.9	5%	32µM*	-0.7	6
O=C(Nc1ccc(Cl)cc1F)c1ccc2c(c1)C(=O)N(Cc1ccncc1)C2=O	4%	1.5	-11%	x	x	-9
CC(C)(C)NC(=O)C1CCN(c2nc3ccccc3nc2C(F)(F)F)CC1	x	0.5	x	-1.1%	x	-19
Cn1c(SCC(=O)NC2(C#N)CCCCC2)nnc1-c1cccnc1	6%[15.4 µM]	0.1	8%	-1.5%	2.5	2
CCOC(=O)c1cc2c(nc1NC(=S)Nc1ccccc1)CC(C)(CC)OC2 (stereo unspecified)	-1%[15.4 µM]	3.5	u	x	0.2	-9
CCOC(=O)C1C(=O)OC(C)(C)C1C(CC)C(=O)c1ccccc1 (stereo unspecified)	0%[15.4 µM]	-0.9	2%	x	-1.4	1
Nc1ncnc2c1ncn2[C@@H]1O[C@H](C(=O)N2CCN(c3nc4ccccc4o3)CC2)[C@@H](O)[C@H]1O	x	-0.5	x	0.0%	x	-13
COc1ccc(N2CCN(CCCNC(=S)Nc3c(C)cccc3C)CC2)cc1	8%[15.4 µM]	-0.3	6%	x	-3.0	-1
CCn1nnc2cc(C(=O)OCC(=O)N(C)Cc3cccc(F)c3)ccc21	0%	3.5	-2%	-0.3%	x	-5
O=C(CSc1nccn1Cc1ccccc1)NCc1ccccc1	-29%	0.3	1%	-0.5%	3.4	12
Cc1ccc(-n2nc(C(=O)c3ccccc3)n3c(=O)c(Cc4ccccc4)nnc23)cc1	-57%[inhibitor]	-0.4	-12%	-2.2%	x	3
NC(=O)N=Nc1c(O)[nH]c2ccc([N+](=O)[O-])cc12	17%	1.0	2%	0.6%	-0.2	5
Cn1ncc2cc(NC(N)=S)ccc21	-4%	-0.7	-11%	21%	-6.6	13
CCOC(=O)c1c(/N=C/C2=C(O)CCCC2=O)sc2c1CCCC2	-4%	-0.8	-18%	-0.8%	12	-9
NS(=O)(=O)c1ccc(CCNC/C=C/c2ccccc2)cc1	2%	0.7	11%	1.7%	0.9	-7
Cc1onc(-c2ccccc2)c1-c1nnc(COC(=O)c2ccc(F)cc2)o1	-13%	2.1	x	0.5%	x	1
CCOC(=O)c1ccc(NC(=S)N2CCN(S(C)(=O)=O)CC2)cc1	28%	-0.6	7%	-2.8%	1.6	11
COc1ccccc1N1CCN(S(=O)(=O)c2ccc(NC(C)=O)cc2)CC1	16%	1.4	-13%	x	6.7	17
O=C(COc1ccc(Cl)cc1)NC1=NN(c2ccccc2)C(=O)C1	-8%	1.4	-4%	-4.7%	2.7	-13
COc1ccc(C(c2c(O)cc(C)n(Cc3ccco3)c2=O)N2CCN(c3ccccc3)CC2)cc1 (stereo unspecified)	x	0.2	x	1.1%	x	0
Cc1cccc(C(=O)N2CCc3cc(CNC(=O)Cc4ccc(F)cc4)ccc32)c1	x	2.1	x	-4.4%	x	-7
COc1ccc(CCc2nc(-c3ccc(-n4cccc4)cc3)no2)cc1	-7%	1.1	-6%	u	5.1	-5
CC1CCCN(C(=O)CSc2nnc3n(C4CCCC4)c(=O)c4ccccc4n23)C1 (stereo unspecified)	4%	1.9	u	-3.1%	6.0	10
CCOC(=O)c1c(C)nsc1NC(=O)C1CCCCC1	-21%	1.0	-3%	x	-1.2	-5
CCc1cccc(C)c1NC(=S)NCc1ccc2[nH]c(C)cc2c1	17%	0.2	10%	-3.2%	1.8	4
CCOc1cc2c(cc1OCC)C(CC(=O)OC)N(C(=O)Nc1cc(C)cc(C)c1)CC2 (stereo unspecified)	x	0.8	x	u	x	48
COc1ccc(S(=O)(=O)N2CCC(NC(=O)c3ccccc3)CC2)cc1	-2%	1.5	12%	-0.6%	1.7	-5
CCc1cccc2c(=O)c(C(=O)NCCCOC)c[nH]c12	-2%[15.4 µM]	0.4	-3%	-1.1%	-6.9	13
COc1ccc(NC(=O)/C=C/c2ccc(Br)o2)cn1	-2%[15.4 µM]	1.2	-6%	x	-22	-10
O=C(OCc1ccccc1F)c1ccc2c(c1)-c1ccccc1C2=O	-25%	1.3	-1%	0.3%	-2.9	-4
COC(=O)Cc1cnc(NC(=O)CSc2nc(C(C)C)cc(=O)[nH]2)s1	8%[15.4 µM]	-0.6	3%	x	-1.3	u
O=C(NNc1ccc(Cl)cc1)c1sccc1Cl	38%	0.6	5%	-2.8%	0.4	16
O=C(NC(C(=O)c1ccccc1)n1c(=O)cc[nH]c1=S)c1ccccc1 (stereo unspecified)	-2%	-0.3	-9%	0.4%	2.5	12
CCOc1ccc(CN2CCNC(=O)C2CC(=O)NCCc2cnccn2)cc1 (stereo unspecified)	17%	-0.2	-12%	0.1%	x	9
COc1cccc(C(=O)Oc2cc(C)[nH]c(=O)c2[N+](=O)[O-])c1OC	-3%	-0.6	-3%	0.9%	1.7	-7

Not a hit list; any-hit rate near 2.1%.
